RE007 growth inh: qHTS Assay for Inhibitors of the HIV-1 protein Vpr | Potency, µM (highest dose often 92.2 µM), inactives show top-dose activity change, negative = less growth | actives 0.21% (n = 360,000) | S. pombe RE007 Vpr strain, BacTiter-Glo ATP luminescence, 24 h; control for the full effect not named in the record; active = well fitted falling curve with a large enough effect; inconclusive = small, poorly fitted or top-dose-only effect; inactive = no such curve, though single readings can be large or run the other way;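 further: on the % scale 0 is the no-effect control and ±100 the full control effect; nearly all actives have a fitted effect of over 50% in size; the assay follows cell death caused by Vpr and the record does not say whether a fall means rescue or toxicity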
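Fission yeast RE007 carrying one integrated HIV-1 vpr copy, seeded at OD 0.01 in PMG+AL medium with 23 nL pinned compound. Grown 24 h at 30 degrees; viability read by BacTiter-Glo luminescence after 5 min.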
Cruzain Triton: qHTS Assay for Promiscuous and Specific Inhibitors of Cruzain (with detergent) | purified cruzain, Z-FR-AMC fluorescence, 0.01% Triton | actives 0.43% (n = 200,000) | AID 1478, 2009 | Potency, µM, for the others: max response, negative = inhibition, usual class: inhibitors | Cruzipain (Trypanosoma cruzi), P25779;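 further: plate controls were neutral wells for no effect and buffer without enzyme for full effect; nearly all actives have a fitted effect of over 40% in size; top concentration of the series not given in the record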
Target sequence (P25779 123-467 limits assumed): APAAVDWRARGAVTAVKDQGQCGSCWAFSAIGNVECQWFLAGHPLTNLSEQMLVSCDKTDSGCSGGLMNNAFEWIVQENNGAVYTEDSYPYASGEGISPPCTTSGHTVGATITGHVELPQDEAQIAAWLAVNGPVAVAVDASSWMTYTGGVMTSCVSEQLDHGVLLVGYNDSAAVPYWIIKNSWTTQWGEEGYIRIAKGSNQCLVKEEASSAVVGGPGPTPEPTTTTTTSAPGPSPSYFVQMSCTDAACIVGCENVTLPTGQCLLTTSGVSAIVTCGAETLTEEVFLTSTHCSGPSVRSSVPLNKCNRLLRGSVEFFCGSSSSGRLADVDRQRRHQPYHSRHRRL
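Purified cruzain (1.5 nM final) was preincubated with compounds for 15 min at room temperature in 100 mM sodium acetate pH 5.5, 5 mM DTT, 0.01% Triton X-100. Reaction started with 2 uM Z-FR-AMC; AMC fluorescence change over 60 s gave activity.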
LASV entry inh: qHTS for Inhibitors of binding or entry into cells for Lassa Virus; Lassa virus pseudotype entry inhibition, cell reporter; control for the full effect not named in the record; Potency, µM (highest dose often 37.9 µM), without a hit: top-dose activity change, negative = inhibition, actives largely listed as inhibitors; actives 1.2% (n = 300,000); AID 540256, 2011; active means well fitted inhibition curve with a large enough effect; inconclusive means small, poorly fitted or top-dose-only effect, or effect the other way; inactive means flat fitted curve, though single readings scatter; tested in HEK293 cells; further: on the % scale 0 is the no-effect control and ±100 the full control effect; nearly all actives have a fitted effect of over 50% in size; luciferase read-out
Cruzain noTriton: qHTS Assay for Promiscuous and Specific Inhibitors of Cruzain (without detergent); AID 1476, 2009; actives 2.3% (n = 200,000); Potency, µM, for the others: max response, negative = inhibition, actives largely listed as inhibitors; purified cruzain, Z-FR-AMC fluorescence, no detergent;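 further: plate controls were enzyme without inhibitor for no effect and buffer without enzyme for full effect; nearly all actives have a fitted effect of over 40% in size; top concentration of the series not given in the record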
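Detergent-free condition (0.00005% Triton X-100) in acetate buffer pH 5.5 with DTT. 1.5 nM enzyme and compound were pre-mixed 15 min, then 2 uM Z-FR-AMC substrate added; reaction progress from fluorescence change between first and third reads (60 s).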
MARV entry inh: qHTS for inhibitors of binding or entry into cells for Marburg Virus; Marburg virus pseudotyped entry inhibition, cell reporter; control for the full effect not named in the record; about a third of the inactives were read at about 46 µM; Potency, µM (top dose mostly 37.8 µM), for inactives: at the top dose activity change, negative = inhibition, usual class: inhibitors; actives 1.8% (n = 300,000); active = well fitted inhibition curve with a large enough effect; inconclusive = small, poorly fitted or top-dose-only effect, or effect the other way; inactive = flat fitted curve, though single readings scatter; tested in HEK293 cells; about a fifth of its hits are not listed in these tables; further: on the % scale 0 is the no-effect control and ±100 the full control effect; luciferase read-out
SARS PLP yeast: qHTS of Yeast-based Assay for SARS-CoV PLP | actives 0.19% (n = 330,000) | AID 485353, 2010 | Potency, µM (titrated, usually from 32.9 µM), inactives show at the top dose activity, positive = growth rescue | S. cerevisiae expressing SARS-CoV PLpro, growth rescue; control for the full effect not named in the record; active means well fitted rising curve with a large enough effect; inconclusive means small, poorly fitted or top-dose-only effect; inactive means no such curve, though single readings can be large or run the other way; further: 0% is about no effect; nearly all actives have a fitted effect of over 55% in size; growth read by luminescence after 48 h
NS1 inh: qHTS Assay for Inhibitors of Influenza NS1 Protein Function. Potency, µM (highest dose often 46.1 µM), for the others: at the top dose activity, positive = more growth. actives 0.4% (n = 270,000). AID 2326, 2010. S. cerevisiae slowed by influenza A NS1, growth recovery by OD600; active means well fitted rising curve with a large enough effect; inconclusive means small, poorly fitted or top-dose-only effect; inactive means no such curve, though single readings can be large or run the other way; further: nearly all actives have a fitted effect of over 50% in size
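Compounds were scored for reversing the slow growth caused by influenza A NS1 in S. cerevisiae, measured by optical density at 600 nm. Assay medium contained 2% galactose at pH 6.0; NS1-free yeast of the same strain were the positive control.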
StopGo reporter: High Throughput Screening for Foot and Mouth Disease Virus Antivirals. human cells with a luciferase reporter of 2A StopGo recoding; control for the full effect not named in the record. Potency, µM (highest dose often 57.9 µM), for the others: top-dose signal change, negative = less light. actives 1.2% (n = 410,000); active = well fitted falling curve with a large enough effect; inconclusive = small, poorly fitted or top-dose-only effect; inactive = no such curve, though single readings can be large or run the other way; tested in HEK293T cells; further: on the % scale 0 is the no-effect control and ±100 the full control effect; nearly all actives have a fitted effect of over 45% in size; luciferase light after 4 h
An asterisk follows results filed as active; ? = inconclusive; · = no result given; & = joins results of further samples; [ ] = remark or other dose. Unless noted, the call rests on the fitted dose curve; in most records, active means well fitted curve in the direction sought with a large enough effect; inconclusive means small, poorly fitted or top-dose-only effect, or another doubt; inactive means no such curve, though single readings can be large; an effect the other way counts as inactive or inconclusive. Potency means the concentration at half of the fitted maximal effect. Rows are unselected; overall some 4.8% were active at least once.

SMILES | RE007 growth inh | Cruzain Triton | LASV entry inh | Cruzain noTriton | MARV entry inh | SARS PLP yeast | NS1 inh | StopGo reporter
CCCc1[nH]nc2c1C1(CCN(C(=O)OCc3ccccc3)CC1)C(C#N)=C(N)O2 | 6% | 1.6% | 5% | -3% | 15% | 8% | -6% | ·
Cc1ccc(N(C)S(=O)(=O)c2cccc(C(=O)NC3=NCCS3)c2)cc1 | 2% | 1.3% | -6% | -11% | -45% | -32% | -45% | -25%
Cc1ccn(S(=O)(=O)c2ccc(N3CCCC3=O)cc2)n1 | 21% | · | 8%[46.1 µM] | · | -28%[46.1 µM] | 1% | -1% | -7%
COc1ccc(-c2nc3ccccc3n2CCC(C)C)cc1OC | -13% | -2.8% | -1% | 5% | ? | 18% | -25% | ?
O=C(NCc1ccccc1F)c1cccc(S(=O)(=O)N2CCCCC2)c1 | 0% | · | ? | · | 2% | 0% | · | 14%
Cc1nnc(Nc2ccc3c(c2)OCO3)c2ccccc12 | 0% | -2.3% | -7% | -1% | 27% | 2% | 6% | 40%[activator]
CCOC(=O)c1nn(-c2ccc(F)cc2)cc1O | -15% | · | -2% | · | 23%[46.1 µM] | -4% | · | 16%
COc1ccc(N(C)S(=O)(=O)c2cccc(C(=O)N3CCN(c4ccccc4)CC3)c2)cc1 | 2% | · | ? | · | ? | -4% | · | ?
COc1ccc(C(=O)CN2Cc3ccccc3C2=N)cc1 | -7% | · | · | · | · | -6% | 5% | 50%[activator]
COc1cccc(C(=O)N/N=c2\sc3ccccc3n2C)c1 | -8% | -0.9% | 8% | -4% | ? | -17% | -39% | 12%
O=C(NNC(=O)C1CCCN(S(=O)(=O)c2cccc(F)c2)C1)C1CC1 (stereo not given) | 30% | · | -10% | · | -1%[46.1 µM] | -1% | 0% | -13%
NC(=O)c1cc(S(=O)(=O)N2CCOCC2)cs1 | 2% | · | · | · | · | 1% | 0% | -7%
COC(=O)c1ccccc1NC(=O)CN1C(=O)CSC1=O | -8% | 4.2% | 8% | 2% | -7% | -1% | 1% | 19%
Cc1cc2oc(=O)cc(CN3CCCCC3)c2cc1C | -10% | · | · | · | · | 1% | 6% | -4%
CC(C)CC(=O)N1CCN(C(=O)c2ccc(F)cc2)CC1 | -1% | · | 4%[46.1 µM] | · | 18%[46.1 µM] | -4% | 10% | -8%
CC(C)n1cc(C(=O)N2CCCC(N3CCN(c4cccc(Cl)c4)CC3)C2)cn1 (stereo not given) | -6% | · | 0% | · | 0% | 1% | -11% | 2%
CCOC(=O)CNc1nc(Cl)nc(Nc2ccc(Cl)cc2)n1 | 2% | · | · | · | · | -1% | 9% | -3%
CCc1ccc2c(CN3CCc4ccccc43)cc(=O)oc2c1 | 7% | -3.7% | 11% | 32µM* | 0% | -3% | -11% | 15%
c1ccc(-c2cn3c4c(sc3n2)CCCC4)cc1 | 25µM* | -7.4% | ? | 7% | 1.1µM* | -30% | -38% | -52%
CCOCC1(CCc2ccccc2)C(=O)NC(=S)NC1=O | 7% | · | 5% | · | ? | · | · | -11%
COc1ccc(/C=C(\NC(=O)c2ccc(Cl)cc2)C(=O)NCCCN2CCOCC2)cc1OC | -12% | · | 11% | · | -1% | -1% | 2% | -16%
CCN(CC)CCCNC(=O)c1c(O)c2c([nH]c1=O)CCCC2 | -3% | 1.1% | -1% | 5% | ? | -1% | -1% | ·
CNc1c(NS(=O)(=O)c2ccc(Br)cc2)c(=O)oc2ccccc12 | -15% | · | ? | · | 1%[46.1 µM] | 1% | 5% | -8%
CC(C)(O)P(=O)(O)CCc1ccccc1 | -12% | · | 24% | · | 1% | 1% | 4% | -9%
CCCOc1ccc(NC(=O)CC2C(=O)N(c3ccc(C)cc3)C(=O)N2C2CCCC2)cc1 (stereo not given) | · | -6.3% | ? | 5% | 1%[46.1 µM] | · | · | 12%
CC(C)C(=O)N1CCC(c2nc(-c3ccc(S(=O)(=O)N4CCN(C)CC4)cc3)no2)CC1 | -5% | · | -6%[46.1 µM] | · | ? | 1% | 10% | -19%
CC1CCCCC12NC(=O)N(CC(=O)Nc1ccc(S(=O)(=O)N3CCOCC3)cc1)C2=O (stereo not given) | 10% | -2.0% | 2% | -2% | 10% | -3% | 9% | 14%
COc1ccc(NC(=O)c2ccc3c(c2)C(=O)N(Cc2cccnc2)C3=O)c(OC)c1 | -10% | -4.8% | 4% | -14% | 22% | 2% | -5% | -18%
CC(C)(C)N(Cc1ccccc1)C(=O)c1ccncc1 | 0% | · | · | · | · | 12% | 7% | -20%
COc1ccc(C(=O)C2CCCN(C(=O)c3n[nH]c4c3CCCC4)C2)cc1OC (stereo not given) | 1% | · | -5%[46.1 µM] | · | -22%[46.1 µM] | 0% | 0% | -13%

Copied from the entries so far, 8 compounds:
SMILES | RE007 growth inh | Cruzain Triton | LASV entry inh | Cruzain noTriton | MARV entry inh | SARS PLP yeast | NS1 inh | StopGo reporter
CNc1c(NS(=O)(=O)c2ccc(Br)cc2)c(=O)oc2ccccc12 | -15% | · | ? | · | 1%[46.1 µM] | 1% | 5% | -8%
CC(C)(O)P(=O)(O)CCc1ccccc1 | -12% | · | 24% | · | 1% | 1% | 4% | -9%
CCCOc1ccc(NC(=O)CC2C(=O)N(c3ccc(C)cc3)C(=O)N2C2CCCC2)cc1 (stereo not given) | · | -6.3% | ? | 5% | 1%[46.1 µM] | · | · | 12%
CC(C)C(=O)N1CCC(c2nc(-c3ccc(S(=O)(=O)N4CCN(C)CC4)cc3)no2)CC1 | -5% | · | -6%[46.1 µM] | · | ? | 1% | 10% | -19%
CC1CCCCC12NC(=O)N(CC(=O)Nc1ccc(S(=O)(=O)N3CCOCC3)cc1)C2=O (stereo not given) | 10% | -2.0% | 2% | -2% | 10% | -3% | 9% | 14%
COc1ccc(NC(=O)c2ccc3c(c2)C(=O)N(Cc2cccnc2)C3=O)c(OC)c1 | -10% | -4.8% | 4% | -14% | 22% | 2% | -5% | -18%
CC(C)(C)N(Cc1ccccc1)C(=O)c1ccncc1 | 0% | · | · | · | · | 12% | 7% | -20%
COc1ccc(C(=O)C2CCCN(C(=O)c3n[nH]c4c3CCCC4)C2)cc1OC (stereo not given) | 1% | · | -5%[46.1 µM] | · | -22%[46.1 µM] | 0% | 0% | -13%

Next records
SMILES | RE007 growth inh | Cruzain Triton | LASV entry inh | Cruzain noTriton | MARV entry inh | SARS PLP yeast | NS1 inh | StopGo reporter
COc1cccc(C=NCCCN=Cc2cccc(OC)c2O)c1O | -2% | · | · | · | · | 0% | -3% | 5%
Cc1ccc(-c2nc(NCc3ccco3)n(S(C)(=O)=O)n2)cc1 | 12% | · | 0% | · | 22%[46.1 µM] | 3% | · | 55%[activator]
CCCCn1c(SCC(=O)c2cc(OC)ccc2OC)nc2cc(S(N)(=O)=O)ccc21 | 4% | -13% | 25% | 21% | -1%&-6% | 10% | -4% | -15%
CCc1ccccc1-n1nnc(-c2nc(-c3ccccc3F)no2)c1C | · | 1.5% | ? | -3% | · | · | · | 16%
CCOc1ccc(-c2nnc(-c3snc(-c4ccc(F)cc4)c3N=CN(C)C)o2)cc1 | 15% | -1.1% | -18% | ? | 0%[46.1 µM] | 14% | -5% | -19%
Cc1nc2ccc(NC(=S)NC3CCCCC3)cc2nc1C | 18% | · | 13% | · | -7% | 6% | · | 54%[activator]
c1ccc(-c2ccn3nnnc3n2)cc1 | -16% | -0.2% | -5% | -1% | 10% | 8% | 13% | 2%
N#CC12CCCCC1CC1CCCCC1(C#N)N2Cc1cccnc1 (stereo not given) | 13% | -0.2% | 12% | 6% | ? | -8% | -5% | -16%
COc1cc(=O)n(C)c2c(O)cccc12 | 9% | · | · | · | · | 0% | -5% | -2%
CC1(C)Cc2cccc(OCC(=O)NCCc3ccc(S(N)(=O)=O)cc3)c2O1 | -9% | · | 13% | · | 17% | -1% | · | 0%
C[C@@H](NC(=O)OC(C)(C)C)C(=O)NCC1CCC(C(=O)N[C@@H](Cc2ccccc2)C(=O)O)CC1 (stereo not given in full) | 1% | · | · | · | · | 5% | 4% | -5%
CN(CC(=O)Nc1cccc(F)c1)C(=O)CSc1ccc(Br)cc1 | 3% | · | ? | · | -16%[46.1 µM] | -5% | · | 9%
COc1ccc(Cl)cc1C(=O)CSc1nnnn1C1CCCCC1 | -4% | -2.8% | -10% | -7% | ? | -9% | -12% | -24%
O=C(NCCCN1CCCC1=O)c1sc2ccccc2c1Cl | 56% | · | -2% | · | 18% | -5% | -1% | 33%[activator]
COc1cc(-c2nnc3sc(C4CCCCC4)nn23)cc(OC)c1OC | 12% | -0.3% | ? | 22% | ? | -2% | -152% | ?
CCOC(=O)/C=C/C(=O)OCC(=O)Nc1ccc(Cl)cc1Cl | -6% | · | 5% | · | 13%[46.1 µM] | 0% | · | -19%
Cc1onc(-c2ccccc2)c1C(=O)N1CCN(S(=O)(=O)c2ccccc2Br)CC1 | 12% | · | -27%[46.1 µM] | · | -14%[46.1 µM] | 5% | 4% | -10%
CC(c1ccon1)N(C)Cc1cn[nH]c1-c1ccc(-c2ccccc2)cc1 (stereo not given) | 10% | · | -11% | · | ? | -2% | 0% | 7%
CC(C)c1csc(CN2CCC(CCC(=O)NCC3CCCO3)CC2)n1 (stereo not given) | -4% | · | -2% | · | ? | 0% | -3% | -13%
O=C(O)c1ccc(S(=O)(=O)NC2CCCCC2)cc1 | 7% | -4.2% | 0% | -9% | -3% | 3% | -8% | 18%
Cc1nc(S/C(=C/c2ccc(-c3cccc(Cl)c3)o2)C(=O)O)n[nH]1 | -14% | 3.5% | ? | 25µM* | 6% | -4% | 10% | -3%
COc1ccc(S(=O)(=O)NCc2cccnc2)cc1C | -6% | · | -17% | · | 29% | -1% | -11% | 47%[activator]
